High-throughput results: PubChem BioAssay, National Center for Advancing Translational Sciences (NCATS)
PINK1 expr mod = changes PINK1 expression. PINK1 immunofluorescence, high-content cytometry, 24 h. Potency, µM (doses to about 76.6 µM), for inactives: at the top dose activation (PINK1 increase), hits mostly activators. hit rate 0.2% among 410,000. AID 624263; active = well fitted activation curve with a large enough effect; inconclusive = small, poorly fitted or top-dose-only effect; inactive = flat fitted curve, though single readings scatter; cell line not stated here;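 also: potency is read from the fitted curve at half-maximal effect; % of control where 0% means no effect; nearly all actives have a fitted effect of over 65% in size; a mitochondrial uncoupler was the plate control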
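Fluorescence from anti-PINK1 antibody, together with nuclear and cell stains, was scanned on a laser-scanning cytometer. Before staining, stable-line cells were incubated 24 hours with compounds at 5 concentrations; primary antibody 12 h at 10 degrees C.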
D2 PAM = positive allosteric modulators of human D2 dopamine receptor; hit rate 0.23% among 360,000; P14416; potentiation, % (concentration not given with the values); AID 624464; DiscoveRx D2 beta-arrestin cells, luminescence, 90 min; 100% = 57 uM dopamine signal; active = potentiation of 50% or more; inconclusive = 30% to 50%; inactive = 30% or less;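 also: compound concentration not given in the record; tested on top of an EC20 dose of dopamine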
Target sequence (P14416 whole entry, looked up): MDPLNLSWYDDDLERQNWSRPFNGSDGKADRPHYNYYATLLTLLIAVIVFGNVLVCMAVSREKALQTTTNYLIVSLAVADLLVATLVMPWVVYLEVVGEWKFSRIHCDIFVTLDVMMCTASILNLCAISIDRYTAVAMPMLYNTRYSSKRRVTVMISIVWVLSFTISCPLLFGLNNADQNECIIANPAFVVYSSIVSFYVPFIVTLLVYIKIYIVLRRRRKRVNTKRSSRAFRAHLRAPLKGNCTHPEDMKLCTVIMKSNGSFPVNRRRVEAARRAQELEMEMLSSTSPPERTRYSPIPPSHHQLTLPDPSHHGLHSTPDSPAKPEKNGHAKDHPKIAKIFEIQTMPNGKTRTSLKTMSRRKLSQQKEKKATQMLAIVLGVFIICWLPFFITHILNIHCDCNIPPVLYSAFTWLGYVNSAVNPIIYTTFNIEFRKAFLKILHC
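PathHunter D2 cells, attached overnight at 37 deg C, received compound in DMSO plus dopamine at EC20 (50 nM final) for 90 min at 37 deg C. Beta-arrestin recruitment was read as luminescence after 1 h with detection reagent at ambient temperature.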
CtBP-E1A blk = CtBP/E1A binding inhibition; hit rate 0.49% among 340,000; AlphaScreen GST-E1A/His-CtBP binding, 1536-well; hits give low values; control for the full effect not named in the record; activity change, % (concentration not given with the values); AID 651724; in the data active means activity change below about -65%; inconclusive means about -30% to -65%; inactive means above about -30%; also: % is scaled to controls: 0 for no effect and ±100 for the full control effect
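Protein mix (5X: 125 nM each GST-E1A, His-CtBP) was incubated with pinned compound 2 h at 37 deg C in dark, in 50 mM Tris pH 8.0 buffer with 300 mM NaCl. Glutathione donor and nickel acceptor beads followed; AlphaScreen signal read after 1 h.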
D2 agonist = agonists of human D2 dopamine receptor (beta-arrestin) | hit rate 0.084% among 360,000 | P14416 | AID 624465 | activation, % (no concentration beside the values) | DiscoveRx PathHunter D2 beta-arrestin, luminescence, 90 min; 100% = 57 uM dopamine signal; in the data active = activation above about 40%; inconclusive = about 15% to 40%; inactive = below about 15%; also: compound concentration not given in the record; the text of the record calls up to 30% inactive
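Agonist mode: compounds alone added to overnight-plated D2 PathHunter cells for 90 min at 37 C, with 57 uM final dopamine (EC100) defining full response. Beta-arrestin recruitment detected by chemiluminescent reagent, read after 1 h at ambient temperature.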
TRPML1 ag = activates the human TRPML1 channel. hit rate 0.12% among 410,000. activation, % (concentration not given with the values). TRPML1-expressing cells, Ca2+ dye fluorescence, FDSS; host cell line not named in the record; reference of the full effect not given here; in the data active = activation above about 50%; inconclusive = about 30% to 50%; inactive = below about 30%; also: 0% is about no effect; the text of the record puts the active cut at 80%
Target sequence (Q9GZU1 whole entry, looked up): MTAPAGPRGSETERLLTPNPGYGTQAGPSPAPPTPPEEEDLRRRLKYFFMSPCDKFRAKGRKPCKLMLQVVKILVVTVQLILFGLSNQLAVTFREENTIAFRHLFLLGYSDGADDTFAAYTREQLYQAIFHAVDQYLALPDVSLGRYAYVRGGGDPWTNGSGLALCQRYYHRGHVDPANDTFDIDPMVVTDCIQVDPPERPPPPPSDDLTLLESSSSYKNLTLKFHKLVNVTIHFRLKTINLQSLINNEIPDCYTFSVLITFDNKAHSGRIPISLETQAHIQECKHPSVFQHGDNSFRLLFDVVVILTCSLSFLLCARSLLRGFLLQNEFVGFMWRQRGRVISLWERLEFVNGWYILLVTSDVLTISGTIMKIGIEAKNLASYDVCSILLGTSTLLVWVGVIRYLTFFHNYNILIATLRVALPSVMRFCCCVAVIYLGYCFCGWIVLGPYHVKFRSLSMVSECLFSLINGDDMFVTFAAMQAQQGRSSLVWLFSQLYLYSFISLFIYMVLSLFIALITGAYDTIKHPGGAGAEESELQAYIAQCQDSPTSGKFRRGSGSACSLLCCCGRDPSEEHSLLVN
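Agonist activity was taken from a 110 s kinetic Ca2+ dye read on the FDSS after pinning compounds onto TRPML1-DL cells. The cells were seeded at 1,500/well with Tet inducer, incubated about 16 h, then dye-loaded at room temperature.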
Six1-Eya2 inh = inhibitors of human Six1/Eya2 interaction. activity change, % (no concentration beside the values). AID 651725. Q15475+O00167. AlphaScreen GST-Six1/His-Eya2 binding, biochemical; hits give low values; control for the full effect not named in the record. hit rate 0.56% among 360,000; in the data active = activity change below about -65%; inconclusive = about -30% to -65%; inactive = above about -30%; also: % is scaled to controls: 0 for no effect and ±100 for the full control effect; compound concentration not given in the record
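AlphaScreen luminescence read after one hour at 37 °C in darkness. Pin-transferred compounds met GST-Six1 and His-Eya2 protein (5X stock 250 nM/500 nM) plus glutathione donor and Ni-chelate acceptor beads (5X, 50 ug/mL).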
Active calls of the source: *; ? = inconclusive; nt = no result given; & = joins results of further samples; [ ] = dose if it differs, or a comment.

SMILES	PINK1 expr mod	D2 PAM	CtBP-E1A blk	D2 agonist	TRPML1 ag	Six1-Eya2 inh
CS(=O)(=O)N1CCC(C(=O)Nc2cc(Cl)c(Cl)cc2Cl)CC1	8.9%	-1	6	7.3	-0.7	5
NC(=O)C(CCCCN1CCCCC1)(c1ccccc1)c1ccccc1	-0.3%	-20	7	-0.9	1.0	4
CCOc1ccc(-n2c(-c3ccccc3)c[n+]3c2CCC3)cc1	-0.9%	-26	3	2.3	0.5	0
COc1cc(/C=N/NC(N)=S)ccc1OCC(=O)Nc1ccc(C)cc1	2.9%	9	-5	1.8	0.1	-1
COc1cc2c(cc1OC)C(C(=O)O)C(c1cc(Br)c(O)c(OC)c1)N(C)C2=O (stereo not given)	-1.8%	-11	-1	0.2	3.1	-1
CCOC(=O)c1c(C)n(C)c2ccc(OC(=O)c3ccoc3)cc12	nt	-4	-4	2.5	2.1	0
CCOC(=O)C1=C(O)C(=O)N(Cc2ccc(C(C)(C)C)cc2)CC1	6.8%	1	0	0.1	4.2	1
O=C(COc1cc(F)ccc1[N+](=O)[O-])NCCCc1ccccc1	-1.0%	-5	-5	-2.2	0.1	-3
Nc1cc(OCC(F)(F)F)cc([N+](=O)[O-])c1	2.0%	-10	-4	-0.1	0.5	2
O=C(NC1=C(Nc2ccc(F)cc2)C(=O)c2ccccc2C1=O)c1ccc(Cl)cc1	6.5%	70*	-22	9.7	0.9	?

Some of the entries so far, with values under each structure.
Below each SMILES – PINK1 expr mod	D2 PAM	CtBP-E1A blk	D2 agonist	TRPML1 ag	Six1-Eya2 inh
> COc1cc(/C=N/NC(N)=S)ccc1OCC(=O)Nc1ccc(C)cc1
  2.9%	9	-5	1.8	0.1	-1
> COc1cc2c(cc1OC)C(C(=O)O)C(c1cc(Br)c(O)c(OC)c1)N(C)C2=O (stereo not given)
  -1.8%	-11	-1	0.2	3.1	-1
> CCOC(=O)c1c(C)n(C)c2ccc(OC(=O)c3ccoc3)cc12
  nt	-4	-4	2.5	2.1	0
> CCOC(=O)C1=C(O)C(=O)N(Cc2ccc(C(C)(C)C)cc2)CC1
  6.8%	1	0	0.1	4.2	1
> O=C(COc1cc(F)ccc1[N+](=O)[O-])NCCCc1ccccc1
  -1.0%	-5	-5	-2.2	0.1	-3

Carrying on.
SMILES	PINK1 expr mod	D2 PAM	CtBP-E1A blk	D2 agonist	TRPML1 ag	Six1-Eya2 inh
CCOc1ccc(C(=O)NC(=S)Nc2ccccc2N2CCCCC2)cc1[N+](=O)[O-]	1.1%	-17	?	-4.8	2.7	-28
O=C(Nc1ccn(Cc2ccccc2)n1)c1cccc(F)c1	-1.3%	-1	5	2.7	0.8	4
O=C(/C=C\Nc1ccc2c(c1)OCO2)c1cccs1	1.1%	-12	-11	0.2	-0.6	-10
COc1cc(C(=O)COC(=O)C2CC2(Cl)Cl)cc(OC)c1OC (stereo not given)	-0.7%	-18	0	-2.0	0.7	-6
O=C(CSc1nnc(-c2cccnc2)n1-c1ccc(F)cc1)NCc1ccc2c(c1)OCO2	3.5%	0	1	-1.5	-1.2	-2
Cc1ccc(S(=O)(=O)c2c(N)n(-c3ccccc3)c3nc4ccccc4nc23)cc1	-1.5%	-6	-3	-4.6	2.4	17
C[C@@H]1CN([C@H](C)CO)C(=O)c2cc(Br)cnc2O[C@@H]1CN(C)C(=O)Nc1cccc(F)c1	-0.7%	0	-1	-3.1	0.1	-2
CCc1c(C)[nH]n(CCC#N)c1=O	17%[38.3 µM]	-3	-5	1.1	-0.4	-14
Cc1ccc2c(CC(=O)OCc3csc(C)n3)coc2c1	2.4%	-3	5	-2.7	1.0	12
COc1ccccc1N1CCN(C(=O)NCc2ccc(Cl)cc2)CC1	3.8%	-8	3	-1.8	-0.1	-2
Cc1cc(C)n(CCCO)c(=O)c1C#N	?	-2	9	-2.1	0.2	3
Cc1oc2ccc(O)cc2c1C(=O)c1ccc(F)cc1	1.5%	-13	nt	0.1	-0.8	1
Cc1nc2ccc(NC(=O)Cc3cccc(F)c3)cc2s1	-0.7%	5	3	-1.3	-0.3	-3
CN1CCN(C2=C(Cl)C(=O)N(c3cccc(Cl)c3)C2=O)CC1	1.1%	-8	-4	-3.6	0.3	-2
CCOC(=O)c1cnc(SCC(=O)Nc2cccc(OC)c2)nc1N	-1.2%[38.3 µM]	-4	6	-0.5	-0.8	-2
CCC1Oc2ccccc2N(CC(=O)NC2CCCCC2C)C1=O (stereo not given)	0.4%	-5	7	-2.3	-0.5	4
COc1ccc(N/C=C2\CCOC2=O)cc1	25%[38.3 µM]	12	1	0.7	-0.8	-10
COc1ccccc1C(=O)C1CCCN(C(=O)c2cccc(Cn3cccn3)c2)C1 (stereo not given)	1.4%	17	9	4.3	-0.3	5
CC1CCCN(CCC(=O)Nc2ccc(F)c(F)c2)C1 (stereo not given)	0.3%	-6	4	1.2	2.6	-1
O=C(O)c1ccc2nc3c(nc2c1)-c1ccccc1C3=O	-0.1%	-17	?	-5.1	-0.2	?
COc1ccc(C)cc1NC(=O)C1CCCN1C(=O)OCc1ccccc1 (stereo not given)	8.2%	-9	-3	-3.0	0.1	-5
CC(C)(C)CC(C)(C)Nc1c(-c2ccc(O)cc2)nc2cnccn12	-2.8%[38.3 µM]	-2	12	3.8	-0.2	2
CC(C)(C)c1ccc(C(CC(=O)O)NC(=O)Cc2ccccc2)cc1 (stereo not given)	0.5%	-1	-1	0.3	0.7	-1
CCOC(=O)C(C)N1N=C(/C=C/c2ccc(OC)cc2)CCC1=O (stereo not given)	1.8%	-12	9	0.0	2.5	2
COc1cccc(OC)c1C(=O)OCC(=O)Nc1ccc(OC(F)(F)F)cc1	-1.2%	-7	4	-0.8	2.4	1
COC(=O)C1(C)NC(c2cccs2)C2C(=O)N(c3ccc(F)cc3)C(=O)C21 (stereo not given)	0.5%	-7	-1	-2.3	2.3	3
Cc1ccc(C)c(S(=O)(=O)NCC(=O)N2CCCC2)c1	0.2%	9	2	0.4	-0.5	-8
COC(=O)c1sc(-c2ccccc2)cc1NC(=O)c1ccc(OC)cc1	2.7%	-3	nt	-4.9	1.3	-3
O=C(Nc1ccc(F)cc1)Nc1cnccn1	-1.3%	-8	4	-1.4	0.9	4
Cc1cccc(NS(=O)(=O)c2ccc(C)c(C(=O)N3CCN(C(=O)c4ccco4)CC3)c2)c1	2.2%	-9	-1	-7.5	3.3	2
Brc1ccc(CN2CCSCC2)cc1	?	-15	-12	-1.7	-0.2	-17
O=C(NC1CCN(S(=O)(=O)c2ccc(Cl)c(F)c2)CC1)c1cccnc1	-1.8%	-6	2	-2.4	0.0	-1
CCCCSc1nc2c(cnn2-c2ccc(F)cc2)c(=O)[nH]1	-1.0%	-3	-1	-5.7	-0.7	3
FC(F)Oc1ccc(NC(=S)NC2CCCCCCC2)cc1	?	2	4	-3.5	8.9	-9
COc1ccc(OC)c2[nH]c(=O)c(CCNC(=S)NC(C)(C)C)cc12	1.8%	-10	nt	-3.3	-0.3	-3
CC(C)(C)NC(=O)NC(=O)CN1C(=O)NC(C)(c2ccccc2)C1=O (stereo not given)	0.9%	6	3	-3.7	0.7	-2
COc1ccc(CCN(C)CCCN2CC(c3ccccc3)CC2=O)cc1OC (stereo not given)	0.2%	-8	1	-6.6	2.7	1
Cc1cc(C(=O)NNC(=O)Nc2ccccc2)no1	0.1%	-1	7	-3.1	-0.5	2
COc1ccc(NS(=O)(=O)c2cn(C)cn2)c(OC)c1	-0.4%	-23	2	1.3	0.7	4
NC(N)=NC(=O)c1nc(Cl)c(N)nc1N	-0.4%&1.7%&-0.3%	-6&8	?	-2.5&-2.8	-0.6&-1.0	?
CCN1C(=O)c2ccccc2S(=O)(=O)c2ccc(C(=O)NCCOC)cc21	-2.1%	-8	0	-5.4	-1.0	4
O=C(CN1CCN(Cc2ccccc2)CC1)Nc1ccc(N2CCOCC2)cc1	-0.1%	-10	-7	-7.1	-0.5	1
O=C(CN1C(=O)CCC1=O)Nc1cccc2c1C(=O)NC2=O	-1.2%	-2	nt	3.6	0.3	-4
Cc1cc(O)c(-c2cc(C(=O)NCc3ccc4c(c3)OCO4)[nH]n2)cc1C	3.6%	-1	-13	0.4	0.7	-1
Cc1ccc(OC(C)C(=O)Nc2ccc(F)cc2)c([N+](=O)[O-])n1 (stereo not given)	3.0%	0	-3	-2.1	1.2	3
O=C(CNC(=O)c1cccc(F)c1)N/N=C/c1ccc(O)c([N+](=O)[O-])c1	0.9%	-29	-4	-8.2	1.6	-15
COc1ccc(/C=N/NC(=O)c2ccc(N3CCCC3=O)cc2)cc1	-0.2%	-11	3	-2.6	0.9	0
Cc1ccc(Nc2nc(/N=C/N(C)C)n[nH]2)cc1C	0.3%	-31	-5	-4.8	-0.8	18
C=CCC1(CC=C)CCCN1C(=O)c1cc(COc2cccc(OC)c2)on1	3.3%	-1	44	1.8	0.5	25
NC(=O)c1ccsc1NC(=O)c1cc(=O)c2ccccc2o1	?	-1	1	2.2	-0.8	-9
Other records follow.
SMILES	PINK1 expr mod	D2 PAM	CtBP-E1A blk	D2 agonist	TRPML1 ag	Six1-Eya2 inh
O=C(c1ncc[nH]1)c1ccco1	-0.8%	-2	7	-5.6	-0.3	5
CCOC(=O)N/N=C\c1ccc(OC(=O)c2ccco2)cc1	-0.9%	1	3	3.6	-0.1	-1
CN(C)c1ccc(CN(C(=O)c2ccco2)C2CCS(=O)(=O)C2)cc1 (stereo not given)	-1.6%	-9	0	-0.1	-0.8	-1
CCOC(=O)Cc1csc(NC(=O)Cc2ccc(Br)cc2)n1	-1.0%	0	2	2.1	2.2	6
CN(CC(=O)Nc1ccccc1Br)C(=O)c1ccccc1OCc1ccc(Cl)cc1	-1.0%	-5	16	-1.6	1.6	2
C/C=C/c1ccc(OC)c(OC(C)=O)c1	-0.6%	5	-1	3.0	-1.1	2
COC(=O)C(C)N(C(=O)c1ccc(C(=O)c2ccccc2)cc1)c1c(C)cccc1C (stereo not given)	5.1%[38.3 µM]	-8	-3	1.3	2.9	-5
C[C@@H]1CC[C@]2(C(=O)O)CC[C@]3(C)C(=CCC4[C@]56CC[C@@](O)(OC5)C(C)(C)C6CC[C@]43C)C2[C@H]1C (stereo not given in full)	23%	-39	0	-4.3	nt	-6
COc1ccc(S(=O)(=O)CCC(=O)N2CCN(c3ccc(C(C)=O)cc3)CC2)cc1	-0.1%	-1	8	-2.9	-0.7	-1
CN(C)c1ncnc2c1ncn2-c1ccccc1	-0.8%	-13	-9	-0.9	0.0	1
CC(C)(C)NC(=O)c1ccccc1-c1nc(-c2ccccc2Cl)no1	3.9%	-40	0	-1.5	0.0	3
CC(C)(C)SCCNS(=O)(=O)c1ccc(C#N)cc1	0.4%	-1	-2	-4.0	-0.6	-18
CC1CCc2cc(F)ccc2N1C(=O)c1cnc2sccn2c1=O (stereo not given)	1.7%	-1	3	-0.1	0.0	6
Cc1ccccc1CNc1nnnn1C	1.1%	0	0	-3.9	0.5	23
COc1ccccc1-n1c(SCC(=O)Nc2cc(C)on2)nc2c(c1=O)SCC2	4.5%	-1	6	-4.7	2.0	-8
Cc1ccc(CCNC(=O)C2CCCN(S(C)(=O)=O)C2)cc1 (stereo not given)	0.4%	-5	7	-2.7	-1.3	-7
